Screening results (PubChem)
Vif TR-FRET: inhibitors of Vif binding to APOBEC3G peptide, primary screen, biochemical, TR-FRET, GST-Vif 1-94, biotin-A3G peptide, dose response retest (AID 1117319) | TR-FRET GST-Vif / biotin-A3G peptide binding; higher % means a stronger effect; test concentration not given here; strong numbers were not always called active | hit rate 0.57% among 260,000 | inhibition, %; hits with a dose series show IC50 in µM | Virion infectivity factor (Human immunodeficiency virus type 1 group M subtype B (isolate …;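 active means above the screen mean plus three standard deviations and confirmed in dose response; inconclusive means results disagree or hit not tested in dose response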;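 further: Vif residues 1-94 fused to GST binding biotinylated APOBEC3G peptide 110-148; 0% = full assay without inhibitor and 100% = GST in place of GST-Vif; retest series ran down from 100 µM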
HNF4A DNA FP: change in binding of human HNF4A to DNA, primary screen, biochemical, fluorescence polarization, FITC-DNA; activity change, % at 10 µM; hit rate 0.3% among 360,000; 1 h; AID 1224865, 2016; in the data active means activity change above about 30%, passing the limit was not always enough;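 further: controls were the assay level and a saturating level of protein; the project sought stronger binding though the title names inhibitors; some compounds called inactive have numbers as strong as hits; positive values seem to mean higher polarization but the record does not say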
UCH37 DUB inh: inhibitors of human UCH37 deubiquitinase, primary screen, biochemical, Ub-AMC cleavage, fluorescence | inhibition, % (test concentration not listed) | AID 588478, 2011 | hit rate 0.33% among 330,000 | Ubiquitin carboxyl-terminal hydrolase isozyme L5 (Homo sapiens), Q9Y5K5 | purified proteasome/UCH37;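 active means mean of two replicates above 20%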;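 further: 0% = compound-free wells with enzyme and 100% = wells lacking proteasome; stock transfer was 100 nL into about 20 µL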
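Schedule: 30 min plus 25 min, room temperature / Material: human UCH37 within purified proteasomes / Technique: AMC fluorescence intensity at 355/460 nm / Buffer or medium: pH 7.4 Tris-HCl (50 mM) with ovalbumin, ATP-MgCl2, DTT / Controls: wells without proteasome as full block, compound-free enzyme plus substrate as uninhibited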
Beta2AR agonist: beta2AR agonists driving receptor internalization, primary screen, cell-based, FAP fluorogen, flow cytometry | Am2.2-beta2AR cells; reference of the scale not given here | response, % (no concentration beside the values) | hit rate 0.43% among 340,000 | AID 504454, 2011;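 active means response above a set limit, near 3 SD of response in nonfluorescent compounds, cut at about 42% in these data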;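 further: stock transfer was 100 nL into about 11 µL; a reference agonist was the positive control; negative values mostly stem from fluorescent compounds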
Ecoli growth: E. coli growth inhibition, primary screen, OD600 | OD600 absorbance (no concentration beside the values) | Escherichia coli growth, 23 h; hits give low values | hit rate 0.21% among 330,000;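 active means OD600 absorbance below the run mean of sample wells minus 3.6 SD, in any replicate, cut at about 0.56 in these data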;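 further: stock transfer was 300 nL into about 60 µL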
LANA-H2B inh: blockers of LANA interaction with H2A/H2B – biochemical, FP readout, HTS, primary screen; Protein LANA1 (Human herpesvirus 8 type P (isolate GK18)), Q9QR71; cell-free LANA-H2A/H2B peptide, fluorescence polarization; inhibition, % (test concentration not listed); hit rate 0.6% among 320,000; AID 2629, 2010; in the data active means inhibition mostly above about 10%, no sharp cut-off; inactive means mostly below about 6.7%;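 further: stock transfer was 7.5 nL into about 10 µL; 0% = median of vehicle wells and 100% = median of positive control wells; one replicate is shown; the record names a cut of 25% in any replicate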
Target sequence (Q9QR71 whole entry, looked up): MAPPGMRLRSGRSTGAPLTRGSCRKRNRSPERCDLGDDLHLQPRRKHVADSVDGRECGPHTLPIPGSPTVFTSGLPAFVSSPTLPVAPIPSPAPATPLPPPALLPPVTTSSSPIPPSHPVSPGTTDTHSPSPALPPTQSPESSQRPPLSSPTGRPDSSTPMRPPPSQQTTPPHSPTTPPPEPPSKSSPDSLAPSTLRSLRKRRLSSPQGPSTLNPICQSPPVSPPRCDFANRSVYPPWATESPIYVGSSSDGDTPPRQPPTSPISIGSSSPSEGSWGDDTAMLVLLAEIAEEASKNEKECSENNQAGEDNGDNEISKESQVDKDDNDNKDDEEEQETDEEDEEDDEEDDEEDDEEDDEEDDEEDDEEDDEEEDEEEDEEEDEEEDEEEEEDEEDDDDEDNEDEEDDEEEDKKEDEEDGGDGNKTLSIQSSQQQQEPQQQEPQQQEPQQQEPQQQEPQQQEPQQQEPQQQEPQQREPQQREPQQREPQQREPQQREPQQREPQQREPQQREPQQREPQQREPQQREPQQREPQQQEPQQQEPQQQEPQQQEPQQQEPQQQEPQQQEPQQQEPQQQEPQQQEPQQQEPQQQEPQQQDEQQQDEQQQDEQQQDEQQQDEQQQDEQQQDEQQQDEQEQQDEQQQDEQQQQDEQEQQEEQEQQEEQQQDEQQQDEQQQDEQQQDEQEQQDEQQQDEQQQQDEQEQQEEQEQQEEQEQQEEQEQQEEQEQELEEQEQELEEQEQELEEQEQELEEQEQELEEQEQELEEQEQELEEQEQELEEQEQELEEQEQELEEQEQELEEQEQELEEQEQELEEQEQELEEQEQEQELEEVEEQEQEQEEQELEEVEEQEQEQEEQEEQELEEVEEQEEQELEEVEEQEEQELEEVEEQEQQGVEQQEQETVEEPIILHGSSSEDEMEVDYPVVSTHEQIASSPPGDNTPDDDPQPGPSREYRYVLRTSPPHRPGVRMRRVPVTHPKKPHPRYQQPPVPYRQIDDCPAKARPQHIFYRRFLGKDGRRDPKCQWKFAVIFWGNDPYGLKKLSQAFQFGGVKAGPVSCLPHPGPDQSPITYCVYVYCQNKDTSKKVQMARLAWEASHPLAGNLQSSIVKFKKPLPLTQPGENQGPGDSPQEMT
A1 inh: caspase 3/7 activation in MEF A1-2A-BIM cells, primary screen, A1 inhibitor project, cell-based, luminescence, HTS. caspase activation, % (test concentration not listed). hit rate 0.066% among 330,000. AID 2462, 2010. Caspase-Glo 3/7 luminescence, 3 h; percent of clofoctol response, vehicle zero;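 active means over half of replicate activation scores above 10%, or exactly half above 10 with the replicate mean above 10; inconclusive means replicate mean below 10 yet half the replicates above 10; inactive means over half of replicates below 10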;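 further: wells of about 30 µL received 50 nL stock; many hits fall short of the cut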
The depositor's hits bear a star; ? = inconclusive; nt = not tested or not shown. Outcome played no part in choosing rows. Share with any hit: about 2.1%.

SMILES	Vif TR-FRET	HNF4A DNA FP	UCH37 DUB inh	Beta2AR agonist	Ecoli growth	LANA-H2B inh	A1 inh
CCOC(=O)C1CCN(C(=O)c2ccccc2NC(=O)c2ccc(Br)cc2)CC1	9.2%	-5.1	4.7	3.6	0.696	-1.5	0.2
Cc1c(OCC(=O)NC(Cc2ccc(Cl)cc2)C(=O)O)ccc2c1oc(=O)c1ccccc12 (stereo not drawn)	nt	2.0	-395.4	-9.4	0.777	-10.0	-0.3
Cc1ccc(SCc2cc(=O)c3c(=O)n(-c4ccccc4)[nH]c3[nH]2)cc1	nt	-3.7	6.3	-0.9	0.757	-3.2	0.8
COc1cccc(/C=N\NC(=O)c2sc(N)nc2C)c1OC	-0.8%	0.0	nt	9.0	nt	8.4	-0.2
CS(=O)(=O)N1CCN(c2ccccc2NC(=O)c2cccnc2Cl)CC1	-0.5%	3.1	2.5	3.2	0.71	-3.2	1.4
CC1(C)CNC(=O)C=C(c2ccccc2)C1	17.9%	-2.4	4.9	-6.6	0.646	-1.6	0.2
COc1ccc(C(=O)N2CCN(C3CCN(Cc4ccccc4)CC3)CC2)cc1OC	-4.2%	0.6	-3.9	-0.8	0.752	7.7	0.5
Cc1ccc2c(C(=O)CSc3ccccc3)c(C)[nH]c2c1	nt	0.8	5.7	8.1	0.684	2.1	0.1
CCc1ccccc1NC(=O)CN1CCN(C(=O)CN2C(=O)NC3(CCCC3)C2=O)CC1	0.5%	2.7	1.0	-1.6	0.664	nt	nt
CC(C)CNC(=O)CN1c2cccc3cccc(c23)S1(=O)=O	nt	1.9	-83.4	-0.5	0.693	0.7	0.2
CC(C)NS(=O)(=O)c1ccc(OCC(=O)N2CCCC2)cc1	5.1%	0.4	0.9	0.8	0.683	6.3	-0.6
COc1ccc(CCNC(=O)c2cc(S(=O)(=O)N3CCOCC3)ccc2F)cc1	-11.8%	1.8	5.4	-13.1	0.694	nt	-0.2
CCOC(=O)Cc1csc(NC(=O)c2ccc(Br)cc2)n1	nt	-0.5	0.7	0.1	0.638	0.5	-1.3
CC(C)(C)c1ccc(C(=O)NCc2nnc(SCC(=O)NC3CCCCC3)o2)cc1	-7.4%	-1.6	4.5	2.2	0.716	0.2	-0.9
COc1ccccc1N(CC(=O)NCCc1ccccc1)S(C)(=O)=O	25.6%	-3.6	4.2	1.6	0.705	-0.7	0.3

Complete entries as entered above. Order of screens: Vif TR-FRET	HNF4A DNA FP	UCH37 DUB inh	Beta2AR agonist	Ecoli growth	LANA-H2B inh	A1 inh
Record of `CC(C)CNC(=O)CN1c2cccc3cccc(c23)S1(=O)=O` → nt	1.9	-83.4	-0.5	0.693	0.7	0.2
Record of `Cc1c(OCC(=O)NC(Cc2ccc(Cl)cc2)C(=O)O)ccc2c1oc(=O)c1ccccc12` (stereo not drawn) → nt	2.0	-395.4	-9.4	0.777	-10.0	-0.3

Later entries
SMILES	Vif TR-FRET	HNF4A DNA FP	UCH37 DUB inh	Beta2AR agonist	Ecoli growth	LANA-H2B inh	A1 inh
O=C1c2ccccc2C(=O)C12OC2c1ccc(Cl)cc1 (stereo not drawn)	16.2%	nt	nt	nt	nt	-3.1	2.0
CCOc1ccc2[nH]c(=O)c(CN(CC3COCCO3)C(=O)c3ccco3)cc2c1 (stereo not drawn)	nt	-2.0	-91.4	-10.4	0.758	-4.7	0.8
NC1=C(c2ccccc2)C(=O)NC1=O	-6.0%	1.6	-0.5	-2.1	0.656	-0.1	-0.3
COc1ccc(N2C(=O)/C(=C\c3ccco3)N=C2SCC(=O)NC(C)C)cc1Cl	?	4.3	3.9	0.8	0.679	3.6	0.2
Cc1cccc(C(=O)N=c2sccn2C)c1[N+](=O)[O-]	nt	3.0	-0.5	-0.4	0.718	-22.8	-1.2
C/C(CC(=O)Nc1cccc(F)c1)=N\NC(=O)c1ccncc1	nt	-1.4	nt	-7.4	nt	0.8	0.2
Cc1ccccc1Nc1nc(N)nc(COC(=O)CCS(=O)(=O)c2ccccc2)n1	0.9%	-0.4	0.0	3.3	0.743	1.4	0.1
CC(C)(C)OC(=O)N1CCC[C@H]1C(=O)OCC(=O)Nc1cc(S(C)(=O)=O)ccc1Cl	nt	-0.2	4.0	-10.7	0.708	-0.5	0.3
CCSc1nc2c(c(=O)[nH]c(=O)n2C)n1CC(O)COc1ccccc1 (stereo not drawn)	-2.0%	-1.0	3.2	4.5	0.655	-1.3	0.3
O=C(c1ccco1)C(O)c1ccco1 (stereo not drawn)	nt	-4.0	nt	6.3	nt	1.1	0.4
O=C(Cn1nc(C(=O)O)c2ccccc2c1=O)Nc1cc(S(=O)(=O)N2CCOCC2)ccc1Cl	-10.5%	0.7	3.5	9.7	0.692	2.7	1.0
CCC(C)[C@H](NC(=O)[C@@H]1Cc2ccccc2CN1C(=O)OC(C)(C)C)C(=O)NCC1CCC(C(=O)O)CC1 (stereo partly drawn)	-0.3%	0.5	1.9	3.5	0.641	0.4	-0.2
COc1cc(C(=O)N[C@@H](C)C(=O)NCc2ccco2)cc(OC)c1OC	9.9%	-5.5	3.7	-3.5	0.722	-2.5	1.2
Cc1ccc(OCc2ccc(C(=O)Nc3ccc(S(N)(=O)=O)cc3)o2)cc1	24.9%	-0.6	5.4	4.3	0.719	2.0	-0.7
Cc1ccc(Nc2nc(N)nc(CN3CCN(c4ccccc4)CC3)n2)cc1Cl	3.4%	2.4	1.5	-1.6	0.634	-2.0	1.0
CN(Cc1ccc(O)cc1)C1CCCCC1	-1.2%	3.5	3.5	4.5	0.746	1.2	0.2
c1ccc(-c2noc(-c3ccno3)n2)nc1	?	-0.6	3.3	2.2	0.656	-1.0	-1.0
Cc1onc(-c2ccccc2)c1-c1ccnn1S(=O)(=O)c1ccc(Cl)cc1	-1.2%	5.3	4.3	2.3	0.694	-0.7	-0.1
COc1ccccc1CN1C[C@@H]2C[C@@H](c3cccc(C)c3)N3CCC[C@@]23C1=O	-4.8%	5.7	-0.7	-3.2	0.725	-3.9	1.9
O=C(Nc1ccc(Cc2ccncc2)cc1)C1CCC(N2C(=O)C3CC=CCC3C2=O)CC1 (stereo not drawn)	-4.7%	-1.9	0.2	-16.9	0.694	8.5	-0.6
O=C(NCc1n[nH]c(=S)n1-c1ccccc1)c1ccc(S(=O)(=O)N2CCCCC2)cc1	0.9%	-2.7	-1.9	-0.7	0.693	0.0	0.8
O=C(O)c1nn2c(c1Br)NC(c1ccccc1)CC2C(F)(F)F (stereo not drawn)	0.5%	0.1	0.2	2.3	0.687	2.8	-0.4
CCn1cc(/C=N/NC(=O)c2ccc(C#N)cc2F)c2ccccc21	13.6%	1.4	nt	-3.7	nt	4.0	0.1
CC(=O)c1cccc(NC(=O)Cn2cnc(S(=O)(=O)N3CCCC3)c2)c1	17.6%	-0.6	0.5	-6.8	0.646	-2.7	-1.7
O=C(N/N=C/c1ccc(Cl)c([N+](=O)[O-])c1)c1ccc2nc[nH]c2c1	4.1%	2.3	nt	-4.4	nt	-2.6	-0.7
CC(O/N=C\c1ccccc1O)C(=O)Nc1ccccc1C(=O)N1CCOCC1 (stereo not drawn)	-6.1%	0.2	nt	3.9	nt	-1.3	0.3
CC1CCCC(NC(=O)CNCc2ccccc2F)C1C (stereo not drawn)	7.0%	1.6	2.7	-1.8	0.691	1.9	-0.6
COCC(=O)Nc1ccc2c(c1)OCC(=O)N2Cc1ccc(C)cc1	-10.9%	0.0	-0.5	-8.2	0.621	3.4	-0.1
COc1ccc(C=C(c2ccc(OC)cc2)c2ccc(OC)cc2)cc1	0.7%	-0.7	-2.0	9.0	0.711	-3.2	0.3
COC(=O)C1=C(N)Oc2cc(N(C)C)ccc2C1c1ccccc1OC (stereo not drawn)	?	32.8	2.0	22.6	0.694	0.3	0.2
CCCc1cc(=O)[nH]c(SCC(=O)Nc2cc(S(=O)(=O)N3CCCCC3)ccc2C)n1	-12.0%	3.3	3.2	2.3	0.67	1.5	1.2
O=C(NC(=S)NNC(=O)c1cccs1)c1ccccc1	nt	-0.4	10.1	-2.3	0.573	-3.6	-0.7
Cc1ccc(-c2noc(C3CCN(S(=O)(=O)c4ccc5c(c4)OCCO5)CC3)n2)o1	6.2%	-2.6	1.5	-8.0	0.698	-1.6	0.9
Cn1cnnc1SCC(=O)OCN1C(=O)c2ccccc2C1=O	-1.5%	-2.5	1.5	-13.4	0.668	0.2	0.8
Cc1cc(=O)n2c3ccccc3n(CC(O)CN3CCCC3)c2c1C#N (stereo not drawn)	-1.1%	2.5	-16.6	1.2	0.647	-1.2	0.0
CCCc1nnc(SCC(=O)N2C(C)CCCC2C)n1CC1CCCO1 (stereo not drawn)	1.0%	3.4	1.3	-2.3	0.713	-0.5	0.0
CCC(Cc1ccccc1)NS(=O)(=O)c1ccc2c(c1)NC(=O)CS2 (stereo not drawn)	-3.0%	-5.1	4.8	2.8	0.683	3.8	-0.9
Cc1ccc(S(=O)(=O)N(C)c2ccc(OC(=O)CN3C(=O)NC4(CCCC4)C3=O)cc2)cc1C	0.6%	12.1	-1.2	1.0	0.681	7.9	-0.2
CC1C(c2ccc3c(c2)OCO3)c2cc3c(cc2OC1N1CCOCC1)OCO3 (stereo not drawn)	-7.5%	-4.9	nt	8.3	nt	nt	nt
COc1ccccc1C(=O)Nc1ccc2nc3n(c(=O)c2c1)CCCC3	0.6%	3.1	3.7	-0.1	0.676	-3.2	0.2
COc1cc2c(cc1NCc1ccccn1)oc1ccccc12	?	9.3	-22.7	8.2	0.724	-2.0	-0.6
CCc1cccc(C)c1NC(=O)CSc1nc(C)c(C)o1	-2.0%	-0.2	0.9	4.2	0.706	-3.5	0.7
Cc1cc(C)cc(NC(=S)NCc2ccc3c(c2)OCO3)c1	nt	1.5	3.2	-0.4	0.677	-5.7	1.4
CN(c1ccccc1)C(c1ccc(F)cc1)c1nnnn1C1CCCC1 (stereo not drawn)	-1.4%	-2.6	7.1	-6.7	0.669	-1.3	1.0
CC(C)NS(=O)(=O)c1ccc(OCC(=O)N2CCCC2)c(Cl)c1	0.6%	-0.5	1.9	0.7	0.734	-0.5	0.2
CC(Sc1nc2c(cc1C#N)CCCCC2)C(=O)O (stereo not drawn)	-3.4%	nt	0.2	nt	0.7	2.7	-0.9
CN(CC(=O)Nc1ccc(Cl)c(C(F)(F)F)c1)C(=O)CCNC(=O)c1ccco1	2.7%	-1.5	2.1	4.3	0.699	5.3	-0.3
O=C(NC1CC1)c1cccc(Nc2ccc(-c3ccc4c(c3)OCCO4)nn2)c1	1.5%	5.5	1.9	4.6	0.622	-6.8	0.0
COC(=O)c1cc2n(n1)CCN(Cc1ccccc1F)C2=O	4.0%	0.2	-0.5	8.7	0.726	9.0	0.0
O=C(Nc1ccc(F)cc1)Nc1ccccc1NS(=O)(=O)c1cccs1	3.1%	-1.1	8.8	2.4	0.628	1.6	0.3
CN(CCOc1ccc(Br)cc1)CC(O)COc1ccc(C#N)cc1 (stereo not drawn)	0.4%	-1.2	nt	2.6	nt	5.1	0.3
O=C(COC(=O)c1ccc(Cl)c([N+](=O)[O-])c1)NC1CCCC1	-3.3%	1.1	2.1	9.9	0.657	-1.0	0.3
Cc1cc(C)n2nc(C(=O)NC(c3ccccc3)c3ccccc3)nc2n1	0.6%	9.2	0.5	1.3	0.68	-2.8	0.4
